Screening results (PubChem)
PINK1 modulator: A Quantitative High throughput Screen to Identify Chemical Modulators of PINK1 Expression. AID 624263, 2012. 410,000 tested, 0.2% active. Potency, µM (titrated, usually from 76.6 µM), without a hit: top-dose activation (PINK1 increase), actives largely listed as activators. PINK1 immunofluorescence, high-content cytometry, 24 h; active = well fitted activation curve with a large enough effect; inconclusive = small, poorly fitted or top-dose-only effect; inactive = flat fitted curve, though single readings scatter; cell line not stated here;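 further: % of control where 0% means no effect; nearly all actives have a fitted effect of over 65% in size; a mitochondrial uncoupler was the plate control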
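Fluorescence from anti-PINK1 antibody, together with nuclear and cell stains, was scanned on a laser-scanning cytometer. Before staining, stable-line cells were incubated 24 hours with compounds at 5 concentrations; primary antibody 12 h at 10 degrees C.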
ClpP mod: qHTS Assay for Activators of ClpP; ATP-dependent Clp protease proteolytic subunit (Bacillus subtilis (strain 168)), P80244; purified B. subtilis ClpP, FRET peptide cleavage, 20 min; Potency, µM (highest dose often 57.5 µM), for the others: at the top dose activity change, negative = active; 340,000 tested, 1.9% active; active = well fitted falling curve with a large enough effect; inconclusive = small, poorly fitted or top-dose-only effect; inactive = no such curve, though single readings can be large or run the other way; further: the source files actives as falling curves though it sought activators and does not explain the sign; nearly all actives have a fitted effect of over 65% in size; many hits overshoot -100%
Target sequence (P80244 whole entry, looked up): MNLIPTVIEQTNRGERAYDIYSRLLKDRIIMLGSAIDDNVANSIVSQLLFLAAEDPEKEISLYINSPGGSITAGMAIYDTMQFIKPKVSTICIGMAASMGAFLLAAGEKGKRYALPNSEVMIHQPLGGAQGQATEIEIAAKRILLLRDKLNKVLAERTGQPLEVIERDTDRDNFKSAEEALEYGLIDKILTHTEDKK
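Buffer: 100 mM Tris/HCl pH8, 100 mM KCl, 0.05% low protease BSA, 2.5% glycerol, 0.01% Tween-20. ClpP 10 microg/mL final; 20 min RT; delta FRET normalized to ADEP and DMSO controls.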
* = called active by the depositor; u = inconclusive. Potency means the concentration at half of the fitted maximal effect. Not all compounds are listed; the hit share may differ from the screen's.

SMILES | PINK1 modulator | ClpP mod
CCOc1ccccc1C(=O)NCC(c1cccs1)S(=O)(=O)c1ccc(F)c(C)c1 (stereo not given) | -1.7% | -6.5%
Cc1c(Cl)cccc1NC(=O)CCCn1nc(C)c2sc3ccccc3c2c1=O | -0.2% | -11%
CCOc1ccc(C(=O)N2CCCCC2CCN2CCOCC2)cc1 (stereo not given) | -0.2% | -3.3%
Cc1c(C(=O)Nc2ccc(-c3nc4cc(Cl)ccc4o3)cc2)oc2ccccc12 | -0.3% | 8.9µM*
Cn1cc(S(=O)(=O)N2CCCCCC2)cc1C(=O)NCc1ccc(F)cc1 | -0.4% | 0.4%
N#Cc1c[nH]n2c(NC3CCCC3)c(-c3cccc(Br)c3)nc12 | -0.2% | -2.2%
O=C(NCCS(=O)(=O)N1CCN(c2ccc(F)cc2)CC1)C(c1ccccc1)c1ccccc1 | 3.2% | -3.6%
CCc1ccc(NC(=O)C2CCCN(S(=O)(=O)c3c(C)noc3/C=C/N(C)C)C2)cc1 (stereo not given) | 3.0% | -3.0%
C=CCNC(=O)c1ccc2nc(-c3ccco3)c(-c3ccco3)nc2c1 | 0.0% | -8.4%
COc1ccc(C2C=C(c3ccc(Cl)cc3)Nc3nc(NC(=O)CCC(=O)O)nn32)cc1 (stereo not given) | -1.5% | 4.6%
Cc1ccc(S(=O)(=O)Nc2cccc(-c3ccc(N4CCCC4)nn3)c2)c(C)c1 | 0.5% | -8.3%
COc1ccccc1CNC(=O)c1ccc(-c2nc(CS(=O)c3ccc(C)cc3)c(C)o2)cc1 (stereo not given) | 3.4% | -13%
COc1ccccc1CNC(=O)CCc1c(C)c2cc3c(C)c(C)oc3cc2oc1=O | 2.5% | 4.7%
CCCc1cnc2c(c1SCC(=O)Nc1ccccc1OCC)c(=O)n(C)c(=O)n2C | 5.8% | -1.6%
CCOc1ccc(NC(=O)c2oc3ccccc3c2NC(=O)Cc2ccc(F)cc2)cc1 | 1.8% | 2.4%

Compounds from the list above that contain a thiophene ring, fused or not (2):
SMILES | PINK1 modulator | ClpP mod
CCOc1ccccc1C(=O)NCC(c1cccs1)S(=O)(=O)c1ccc(F)c(C)c1 (stereo not given) | -1.7% | -6.5%
Cc1c(Cl)cccc1NC(=O)CCCn1nc(C)c2sc3ccccc3c2c1=O | -0.2% | -11%

New compounds follow.
SMILES | PINK1 modulator | ClpP mod
O=C(CN1C(=O)C2(SCC(=O)N2c2ccc(F)c(F)c2)c2ccccc21)Nc1ccccc1F (stereo not given) | -4.9% | -0.1%
CCOc1ccccc1C(=O)N(Cc1cc(OC)c(OC)c(OC)c1)c1ccccn1 | 0.3% | 0.8%
CC(C)c1ccc(NS(=O)(=O)c2ccc3[nH]cc(C(=O)NC4CCCC4)c(=O)c3c2)cc1 | 0.5% | -7.5%
CCOc1ccc(/C=C/c2ccc3ccccc3n2)cc1OCC | 1.1% | -0.3%
CN(C)C(=O)c1ccc(S(=O)(=O)NCc2ccc(Cl)cc2)s1 | 0.0% | -1.9%
COc1cccc2nccc(/C=C/c3ccc(N(C)C)cc3)c12 | 3.1% | -2.0%
Cc1ccc2c(c1)c1c(c(=O)n(-c3ccccc3)c(=O)n1CC(=O)c1ccc(F)cc1)n2C | 1.2% | -9.8%
COc1ccc(CNC(=O)c2cc(C)nc3c2c(C)nn3-c2cccc(Cl)c2C)cc1 | -0.9% | -25%
COc1ccccc1NC(C)C(=O)c1c[nH]c2ccccc12 (stereo not given) | 0.4% | 0.2%
CCc1nnc(SCC(=O)Nc2ccc(F)cc2F)c2cc3sc(C)cc3n12 | -1.1% | 0.8%
COc1ccc(NCc2cc3cc4c(cc3n(CC(=O)Nc3cccc(F)c3)c2=O)OCO4)cc1 | 1.7% | 4.5%
COc1ccc(CNC(=O)CC(c2ccc(OC)cc2)N2Cc3ccccc3C2=O)cc1 (stereo not given) | -0.2% | -0.4%
Cc1cc(-n2c(C)nc3ccccc3c2=O)ccc1NC(=O)c1ccc(C)c([N+](=O)[O-])c1 | 0.1% | -1.3%
CCCCN(C)CC(O)Cn1cc(/C=C/C(=O)c2ccc(OC)c(OC)c2)c2ccccc21 (stereo not given) | -6.1% | -1.4%
Cc1ccc(Cn2c(C(=O)Nc3ccc(Cl)cc3)cc3sccc32)cc1 | u | u
O=C(Nc1cccc(C(F)(F)F)c1)C1CCCN(S(=O)(=O)c2cccc3nsnc23)C1 (stereo not given) | 4.0% | 63%
CC(C)C[C@H]1CN(CCCC[C@@H]2CNC(=O)C(=O)N2Cc2ccccc2)C(=O)C(=O)N1CCc1ccccc1 | 0.7% | 0.5%
Cn1c(C(=O)Nc2cccc(Cl)c2)cc2c(=O)n(C)c3ccccc3c21 | 0.8% | -9.7%
Nc1nc2ccc(Cl)cc2cc1C(=O)NCCc1c[nH]c2ccccc12 | -0.6% | -9.1%
Cc1nn(CC(=O)NCc2ccco2)c(=O)c2cc3ccccc3n12 | -0.5% | -25%
COc1cc2nc(SCC(=O)Nc3ccccc3F)n3nc(-c4ccccc4)nc3c2cc1OC | 1.3% | -0.2%
COc1ccc(N2CCN(C(=O)C(C)n3c(=O)cc(C(F)(F)F)c4c(C)nn(C)c43)CC2)cc1 (stereo not given) | 5.0% | 1.4%
COc1cccc(N2CC(NC(=O)C3CC3)CC2=O)c1 (stereo not given) | 1.5% | -1.3%
COc1ccc(N2CCN(S(=O)(=O)c3ccc(-c4cc(C(F)(F)F)on4)s3)CC2)cc1 | 0.0% | -2.0%
CCCN1CCN(CCNC(=O)Nc2ccc(OC)c(OC)c2)CC1 | -0.5% | 0.5%
Cc1ccc2nc(-c3ccccc3)c(Cc3cccc(F)c3)n2c1 | u | 5.2%
Cc1ccc(NC(=O)c2cc3c(=O)n(Cc4ccco4)ccc3nc2C)cc1C | 4.6% | -4.3%
Cc1ccc(S(=O)(=O)C(CNC(=O)Cc2ccc(Cl)cc2)c2cccs2)cc1 (stereo not given) | -0.1% | -12%
Cc1nn(CC(=O)NC2CC2)c(=O)c2cc3ccccc3n12 | -1.8% | u
Cc1ccc(C(=O)Nc2c(C(=O)Nc3ccc(C)c(C)c3)sc3nc(C)cc(C)c23)cc1 | -2.5% | -17%

The final 3 records of the section before lead into the next.
SMILES | PINK1 modulator | ClpP mod
Cc1ccc(S(=O)(=O)C(CNC(=O)Cc2ccc(Cl)cc2)c2cccs2)cc1 (stereo not given) | -0.1% | -12%
Cc1nn(CC(=O)NC2CC2)c(=O)c2cc3ccccc3n12 | -1.8% | u
Cc1ccc(C(=O)Nc2c(C(=O)Nc3ccc(C)c(C)c3)sc3nc(C)cc(C)c23)cc1 | -2.5% | -17%
CCC(=O)N1c2ccccc2CC1C(=O)N1CCN(c2ccccc2)CC1 (stereo not given) | -0.5% | 0.2%
CC(C)C[C@H]1CN(CCCC[C@@H]2CNC(=O)C(=O)N2CC2CCCCC2)C(=O)C(=O)N1Cc1ccccc1 | 0.4% | 0.2%
COc1cc2ccccc2cc1C(=O)Nc1ccc2oc(-c3ccccc3)nc2c1 | 3.3% | 3.7%
Cc1ccc(-n2cnnn2)cc1S(N)(=O)=O | 1.6% | 2.0%
Cc1nn2c(=O)cc(COC(=O)c3ccc(F)cc3)nc2s1 | 2.3% | -1.7%
Cc1cccc(NC(=O)c2c(NC(=O)c3ccco3)sc3c2CCC(C(C)(C)C)C3)c1 (stereo not given) | 0.2% | -2.4%
CCCN1C(=O)CN(C2CCCCCC2)C(=O)C1c1ccc(OCC)c(OC)c1 (stereo not given) | 0.6% | 0.4%
CCN(CC)C(=O)c1sc2c(c1C)c(=O)n(-c1ccccc1)c(=O)n2Cc1cc(=O)n2ccccc2n1 | 1.4% | -7.1%
CCOc1ccc(NC(=O)Cn2c(=O)c(CNc3ccc(CC)cc3)cc3cc4c(cc32)OCO4)cc1 | 0.4% | 4.2%
Cc1cccc(C(=O)n2nc(-c3cccnc3)nc2NCc2ccc(F)cc2)c1 | -0.7% | -4.8%
Cc1ccccc1Cn1c(COc2ccc(Cl)cc2)nc2ccccc21 | 18% | 1.3%
Cc1ccc(COC(=O)c2[nH]c3c(c2C)C(=O)CC(c2ccc(Cl)cc2)C3)cc1 (stereo not given) | 0.8% | 0.2%
CCOC(=O)C1=C(CS(=O)(=O)c2ccc(C(C)(C)C)cc2)NC(=O)NC1c1cccc(OC)c1 (stereo not given) | 0.1% | -4.2%
CCOCCCn1c(=N)c(C(=O)NC2CCCC2)cc2c(=O)n3cc(C)ccc3nc21 | 1.2% | 4.1%
CCOc1ccc(CNC(=O)c2cccc(NC(=O)N3CCSc4ncccc43)c2)cc1 | 1.1% | -14%

Record cards (already shown):
`Cc1ccc(-n2cnnn2)cc1S(N)(=O)=O` in the list: PINK1 modulator: 1.6%; ClpP mod: 2.0%
`COc1ccc(N2CCN(C(=O)C(C)n3c(=O)cc(C(F)(F)F)c4c(C)nn(C)c43)CC2)cc1` (stereo not given) in the list: PINK1 modulator: 5.0%; ClpP mod: 1.4%

(listing goes on)
SMILES | PINK1 modulator | ClpP mod
COc1cccc(CNc2ncc(-c3ccc(Br)cc3)n2C)c1 | 1.5% | -6.5%
CCCC(=O)NCc1nc2cccnc2n1Cc1ccc(F)cc1 | 1.3% | 1.9%
COc1cc2nc(N3CCOCC3)nc(NC3CCN(C)CC3)c2cc1OC | 0.1% | 4.0%
Cc1cc2nc(-c3cccc(NC(=O)c4cccc5ccccc45)c3)oc2cc1C | 1.3% | -8.5%
N#C/C(=C/c1ccccc1Cl)c1nc2ccccc2c(=O)[nH]1 | -0.8% | -2.2%
CCN(CC)C(=O)CN1C(=O)COc2ccc(S(=O)(=O)N3CCOCC3)cc21 | 2.8% | -0.2%
COc1ccc(CCNC(=O)c2c(Nc3ccccc3C)sc(C(=O)c3ccccc3)c2N)cc1OC | 0.0% | -3.9%
CCOC(=O)c1cc(-c2ccccc2)n(CCCC(=O)Nc2ccc(C)cc2Cl)c1C | -0.6% | -1.6%
CC(C)CCNC(=O)c1cc2cc(S(=O)(=O)N3CCCCC3)ccc2n1C | 1.4% | -1.9%
Cc1cccc(N(C)c2nc3ccccc3c3nnc(C)n23)c1 | 0.6% | 1.2%
CCC(=O)Nc1ccccc1-c1nc2ccccc2n(C(C)C(=O)Nc2cccc(Cl)c2C)c1=O (stereo not given) | 1.1% | -2.5%
O=C(CSCc1cc(=O)c2ccccc2[nH]1)Nc1cccc(C(F)(F)F)c1 | 0.0% | -7.5%
Brc1ccc(-c2nc3ccccn3c2Nc2ccc3c(c2)OCCO3)o1 | -0.9% | u
O=C(Nc1ccccc1O)c1cc(S(=O)(=O)N2CCCC2)ccc1Cl | -0.5% | -5.1%
COc1ccc(Cn2c(CO)cnc2SCc2ccc(C)cc2)cc1 | 0.1% | 0.1%
CC(C)CCOc1ccccc1Cn1c(=O)sc2ccccc21 | 2.5% | 0.7%
COc1ccccc1OCCn1c(-c2ccc(Cl)cc2)nc2ccccc2c1=O | -0.3% | -2.0%
COc1ccc(NS(=O)(=O)c2ccc3c(c2)CCN3C(=O)CCC(=O)O)cc1Cl | 2.3% | -1.6%
CCc1ccccc1N(C)C(=O)C1CCCN(c2ncnc3onc(-c4ccc(F)cc4)c23)C1 (stereo not given) | 1.7% | -4.1%
CCc1ccc(C(=O)c2cn(CC(=O)Nc3ccc(C)c(C)c3)c3ccccc3c2=O)cc1 | 1.8% | -3.5%
CCOCCc1nnc(NC(=O)C(=O)c2cc(C)n(-c3ccc(Cl)cc3)c2C)s1 | 1.0% | 1.0%
Cc1cccc2nc(-c3ccc(Cl)s3)c(Nc3ccc4c(c3)OCCO4)n12 | 1.1% | u
COc1cccc(Cc2nc3ccccc3nc2SCC(=O)Nc2ccccc2F)c1 | 28% | -10%
Cc1ccc(NC2=C(CC(=O)O)C(c3ccc(F)cc3)N(c3ccc(C)cc3)C2=O)cc1 (stereo not given) | 1.1% | -0.8%
COc1ccc(C2C(=O)N(C3CCC(C)CC3)CC(=O)N2C2CCCC2)cc1OC (stereo not given) | 1.5% | -1.3%
CCCN1CCN(CC2=C(C(=O)OCC)C(c3cccc(OC)c3OC)NC(=O)N2)CC1 (stereo not given) | 0.3% | -1.2%
CCc1ccc(S(=O)(=O)c2nnn3c2nc(Nc2ccc(NC(C)=O)cc2)c2sccc23)cc1 | 0.3% | -2.8%
CCCNC(=O)c1cc2c(c(-c3cccc(-c4cc5ccccc5o4)c3)n1)[C@@H](CCO)N(C(=O)NC(C)C)C2 | -0.2% | 4.0%
O=C(Nc1ccc(N2CCN(c3ccc(F)cc3)CC2)c(C(=O)O)c1)c1ccccc1F | 0.8% | -5.5%
Cc1ccc(-c2nc3ccc(Cl)cn3c2Nc2ccccc2)o1 | 1.3% | -5.2%
CCOC(=O)c1cnc2ccc(OCC)cc2c1Nc1cc(Cl)c(OC)cc1OC | 1.7% | -2.0%
CN(C)c1ccc(/C=C/c2ccccn2)cc1 | 20% | -0.1%
